Compound activity (PubChem)
D2 potentiator: Beta-Arrestin HTS for Positive Allosteric Modulators of the Human D2 Dopamine Receptor: Potentiators; DiscoveRx D2 beta-arrestin cells, luminescence, 90 min; 100% = 57 uM dopamine signal; D(2) dopamine receptor (Homo sapiens), P14416; potentiation, % (concentration not given with the values); 0.23% of 360,000 active; AID 624464, 2012; active = potentiation of 50% or more; inconclusive = 30% to 50%; inactive = 30% or less;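 note: compound concentration not given in the record; tested on top of an EC20 dose of dopamine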
Target sequence (P14416 whole entry, looked up): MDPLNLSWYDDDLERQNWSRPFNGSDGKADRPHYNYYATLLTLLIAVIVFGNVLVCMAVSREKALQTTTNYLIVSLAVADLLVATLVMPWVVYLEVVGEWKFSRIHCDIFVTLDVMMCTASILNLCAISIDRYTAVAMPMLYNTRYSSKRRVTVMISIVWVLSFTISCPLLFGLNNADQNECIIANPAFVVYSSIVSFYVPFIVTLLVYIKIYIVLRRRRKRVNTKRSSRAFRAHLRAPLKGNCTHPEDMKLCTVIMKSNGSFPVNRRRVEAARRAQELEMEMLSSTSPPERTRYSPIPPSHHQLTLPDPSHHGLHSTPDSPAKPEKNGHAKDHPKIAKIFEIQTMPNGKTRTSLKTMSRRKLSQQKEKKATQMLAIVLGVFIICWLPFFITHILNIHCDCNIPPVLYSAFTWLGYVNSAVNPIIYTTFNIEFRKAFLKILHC
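PathHunter D2 cells, attached overnight at 37 deg C, received compound in DMSO plus dopamine at EC20 (50 nM final) for 90 min at 37 deg C. Beta-arrestin recruitment was read as luminescence after 1 h with detection reagent at ambient temperature.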
TRPML1 inh: qHTS for Inhibitors of the Human Mucolipin Transient Receptor Potential 1 (TRPML1); Mucolipin-1 (Homo sapiens), Q9GZU1; activity change, negative = inhibition, % (concentration not given with the values); TRPML1-inducible cells, Ca2+ dye fluorescence, FDSS; active compounds read low; inhibition of EC80 agonist-evoked calcium signal; AID 624415, 2012; 0.02% of 390,000 active; in the data active means activity change below about -50%; inconclusive means about -30% to -50%; inactive means above about -30%;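 note: stimulus is agonist 54-4 at its EC80 concentration; % is set by controls: 0 for no effect and ±100 for the full control effect; the text of the record puts the active cut at -80%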
Target sequence (Q9GZU1 whole entry, looked up): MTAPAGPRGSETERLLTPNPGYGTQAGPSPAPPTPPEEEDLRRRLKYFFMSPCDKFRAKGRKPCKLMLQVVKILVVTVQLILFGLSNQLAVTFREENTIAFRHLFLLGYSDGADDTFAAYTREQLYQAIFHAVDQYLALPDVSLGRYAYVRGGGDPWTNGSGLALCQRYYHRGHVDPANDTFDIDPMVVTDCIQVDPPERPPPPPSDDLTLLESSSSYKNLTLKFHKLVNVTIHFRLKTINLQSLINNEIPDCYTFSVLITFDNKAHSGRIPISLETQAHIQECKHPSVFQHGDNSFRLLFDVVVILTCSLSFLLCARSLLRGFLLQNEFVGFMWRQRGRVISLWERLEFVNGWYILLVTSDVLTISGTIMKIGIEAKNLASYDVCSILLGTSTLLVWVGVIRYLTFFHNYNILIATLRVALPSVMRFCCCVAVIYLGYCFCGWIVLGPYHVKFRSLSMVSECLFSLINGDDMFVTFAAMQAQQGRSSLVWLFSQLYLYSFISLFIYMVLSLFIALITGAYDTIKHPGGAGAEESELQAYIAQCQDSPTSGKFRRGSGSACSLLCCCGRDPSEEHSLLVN
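Tet-induced TRPML1-DL cells loaded with Ca8 no-wash calcium dye were read kinetically on FDSS. Compound addition was followed by EC80 agonist 54-4 (4 uM final); inhibition was read over 110 s.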
TRPV1 potentiator: HTS Assay for Compounds that Act as Potentiators of the Vanilloid Receptor 1; 0.02% of 320,000 active; AID 540277, 2011; TRPV1-expressing cells, Fluo-8 calcium influx, capsaicin EC20 potentiation; host cell line not named in the record; control for the full effect not named in the record; Transient receptor potential cation channel subfamily V member 1 (Homo sapiens), Q8NER1; potentiation, % at 8.33 µM; active means potentiation above 80%; inconclusive means 30% to 80%; inactive means below 30%; note: 0% is about no effect
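Fluo-8 calcium influx in TRPV1-expressing cells, kinetic read (ex 480/em 520 nm). Compound added and read 3 min for agonist activity, followed by capsaicin at EC20 final and 2 min further read for enhancement.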
CtBP-E1A inh: qHTS Assay for Inhibitors of the CtBP/E1A Interaction; CtBP / adenovirus E1A interaction (AlphaScreen); AlphaScreen GST-E1A/His-CtBP binding, 1536-well; active compounds read low; control for the full effect not named in the record; activity change, % (test concentration not listed); 0.49% of 340,000 active; in the data active means activity change below about -65%; inconclusive means about -30% to -65%; inactive means above about -30%; note: % is set by controls: 0 for no effect and ±100 for the full control effect
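Homogeneous bead-based format: GST-tagged E1A captured on glutathione donor beads, His-tagged CtBP on nickel acceptor beads; compounds precede bead addition by 2 h at 37 °C.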
Six1-Eya2 blk: qHTS Assay for Inhibitors of the Six1/Eya2 Interaction; AlphaScreen GST-Six1/His-Eya2 binding, biochemical; active compounds read low; control for the full effect not named in the record; AID 651725, 2012; activity change, % (test concentration not listed); 0.56% of 360,000 active; Homeobox protein SIX1 (Homo sapiens) + Protein phosphatase EYA2 (Homo sapiens), …; in the data active = activity change below about -65%; inconclusive = about -30% to -65%; inactive = above about -30%; note: % is set by controls: 0 for no effect and ±100 for the full control effect
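Six1/Eya2 binding was read as AlphaScreen signal after compounds were pinned into GST-Six1 plus His-tagged Eya2 (5X stock 250/500 nM) in pH 8.0 Tris/NaCl/TCEP buffer, beads added, then incubated 1 h, 37 C, dark.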
TRPML1 ag: qHTS for Agonists of the Human Mucolipin Transient Receptor Potential 1 (TRPML1); Mucolipin-1 (Homo sapiens), Q9GZU1; TRPML1-expressing cells, Ca2+ dye fluorescence, FDSS; host cell line not named in the record; reference of the full effect not given here; activation, % (no concentration beside the values); 0.12% of 410,000 active; in the data active = activation above about 50%; inconclusive = about 30% to 50%; inactive = below about 30%; note: 0% is about no effect; the text of the record puts the active cut at 80%
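Calcium fluorescence on an FDSS kinetic reader gave the read-out. Tet-induced TRPML1-DL cells were plated overnight, dye-loaded (Ca8 with quencher, 45-90 min, room temperature, dark), then read 110 s after compound addition, and again 110 s after 4uM final 54-4 (EC80).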
Starred values were filed as active, the others as inactive. This is a random part of the collection; 0.95% or so of the library scored in one or more.

For CCOc1cc(-c2sc(Nc3ccccc3)n[n+]2-c2ccc(F)cc2)ccc1OC the results were D2 potentiator -12, TRPML1 inh 1, TRPV1 potentiator 11, CtBP-E1A inh -9, Six1-Eya2 blk 11 and TRPML1 ag -0.1.
`COC(c1ccccc1)c1nnc(CCC(=O)NCc2cccc(-n3cccn3)c2)o1` (configuration not stated) gave D2 potentiator 0, TRPML1 inh 2, TRPV1 potentiator 9, CtBP-E1A inh 3, Six1-Eya2 blk 2 and TRPML1 ag -0.9.
O=C(NC1CCCC1)c1nc2c(nnn2Cc2cccc(Cl)c2)c(=O)[nH]1 was read as D2 potentiator -16, TRPML1 inh -9, TRPV1 potentiator 5, CtBP-E1A inh 0, Six1-Eya2 blk -1 and TRPML1 ag 0.9.
For O=S(=O)(Nc1ccccc1)c1cccc2nsnc12 the results were D2 potentiator -3, TRPML1 inh 24, TRPV1 potentiator 4, CtBP-E1A inh 7, Six1-Eya2 blk 4 and TRPML1 ag 1.0.
Screening NC(=O)CN1CCCN(S(=O)(=O)c2ccc(Br)cc2)CC1 returned D2 potentiator -16, TRPML1 inh -11, TRPV1 potentiator -18, CtBP-E1A inh -4, Six1-Eya2 blk 4 and TRPML1 ag 3.0.
COc1ccc(-c2c(C(F)(F)F)[nH]n3c(=O)cc(-c4ccccc4)nc23)cc1 was read as D2 potentiator 6, TRPML1 inh -1, TRPV1 potentiator 7, CtBP-E1A inh 8, Six1-Eya2 blk 6 and TRPML1 ag 1.5.
For Cc1ccccc1N(CC(=O)NC1CCCCC1)C(=O)c1csnn1 the results were D2 potentiator -1, TRPML1 inh -2, TRPV1 potentiator 2, CtBP-E1A inh 3, Six1-Eya2 blk 0 and TRPML1 ag 0.7.
For CCN(CC)CCNc1cccc2sc3ccccc3c(=O)c12 the results were D2 potentiator -25, TRPML1 inh 7, CtBP-E1A inh -14, Six1-Eya2 blk -11 and TRPML1 ag -0.1.
For CC(C)(C)c1cc[n+](C2=C([O-])c3ccccc3C(=O)/C2=N\S(=O)(=O)c2ccccc2)cc1 the results were D2 potentiator 19, TRPML1 inh 12, TRPV1 potentiator 9, CtBP-E1A inh 1, Six1-Eya2 blk 8 and TRPML1 ag -0.2.
Screening Cn1cc2ccc([N+](=O)[O-])cc2n1 returned D2 potentiator -17, TRPML1 inh 10, TRPV1 potentiator -3, Six1-Eya2 blk 4 and TRPML1 ag -0.2.
Screening COc1cccc(C(=O)N2CCN(C(=O)C3CC3)CC2)c1 returned D2 potentiator -6, TRPML1 inh -3, TRPV1 potentiator -13, CtBP-E1A inh 0, Six1-Eya2 blk 2 and TRPML1 ag -0.1.
Screening CCOC(=O)c1cccc(NC(=O)C2CCN(c3ncnc4c3nc3n4CCCCC3)CC2)c1 returned D2 potentiator 2, TRPML1 inh 12, TRPV1 potentiator 2, Six1-Eya2 blk 1 and TRPML1 ag 0.9.
For Cc1cc(C)nc(NS(=O)(=O)c2ccc(NC(=O)CSc3ncn[nH]3)cc2)n1 the results were D2 potentiator -12, TRPML1 inh 13, TRPV1 potentiator 2, CtBP-E1A inh -4, Six1-Eya2 blk -1 and TRPML1 ag -0.1.
Cc1ccc(NC(=O)N2CCN(C)CC2)cc1NC(=O)N1CCN(C)CC1 was read as D2 potentiator -2, TRPML1 inh 4, TRPV1 potentiator -5, CtBP-E1A inh 9, Six1-Eya2 blk 3 and TRPML1 ag 0.5.
`CCCCN(C(=O)Cn1ncc(Cl)c(Cl)c1=O)c1c(N)n(CC(C)C)c(=O)[nH]c1=O` gave D2 potentiator -8, TRPV1 potentiator 5, CtBP-E1A inh 9 and Six1-Eya2 blk -20.
Screening COc1ccc(CN2C(=O)c3ccccc3C2=O)cc1C(=O)Nc1ccccc1N1CCOCC1 returned D2 potentiator 8, TRPML1 inh 22, TRPV1 potentiator 5, CtBP-E1A inh -10, Six1-Eya2 blk -2 and TRPML1 ag 2.8.
For CCn1c(SCC(=O)N2CCC(C)CC2)nnc1-c1ccc(S(=O)(=O)N2CCN(C)CC2)cc1 the results were D2 potentiator -11, TRPML1 inh 4, TRPV1 potentiator 5, CtBP-E1A inh -10, Six1-Eya2 blk 3 and TRPML1 ag -0.6.
For O=C(COc1ccccc1Cl)NCCNC(=O)c1cccnc1 the results were D2 potentiator -9, TRPML1 inh 2, TRPV1 potentiator -12, CtBP-E1A inh 11, Six1-Eya2 blk -3 and TRPML1 ag -0.4.
CC1CCc2sc(C(=O)Nc3ccc(C(N)=O)cc3)cc2C1 (configuration not stated) was read as D2 potentiator -4, TRPML1 inh -9, TRPV1 potentiator -19, CtBP-E1A inh 2, Six1-Eya2 blk 7 and TRPML1 ag 0.1.
For C=CCOc1ccc(NC(=O)C2CC(=O)N(C(C)C)C2)cc1 (configuration not stated) the results were D2 potentiator -2, TRPML1 inh 12, TRPV1 potentiator 0, CtBP-E1A inh -3, Six1-Eya2 blk -5 and TRPML1 ag -0.3.
Screening CCn1nc([N+](=O)[O-])c2c(-c3nc4ccccc4o3)c(N)n(CCCOC)c2c1=O returned D2 potentiator 1, TRPML1 inh 14, TRPV1 potentiator 3, CtBP-E1A inh -2, Six1-Eya2 blk -27 and TRPML1 ag -1.5.
`CCOC(=O)CCCOC(=O)c1ccc(S(=O)(=O)N(C)C)cc1` gave D2 potentiator -11, TRPML1 inh 0, TRPV1 potentiator -4, CtBP-E1A inh 4, Six1-Eya2 blk 21 and TRPML1 ag 1.7.
Screening Cc1ccc2c(c1)-c1ncc(C(=O)c3cc(Br)ccc3O)cc1CO2 returned TRPML1 inh -5, TRPV1 potentiator 11 and TRPML1 ag 1.3.
`Cc1nn(-c2ccccc2)c(Cl)c1C(=O)OC(C)C(=O)NC(=O)NC1CCCCC1` (configuration not stated) gave D2 potentiator -14, TRPML1 inh -2, TRPV1 potentiator 2, CtBP-E1A inh -9, Six1-Eya2 blk -1 and TRPML1 ag 0.4.
`O=C(Nc1cc2c(oc1=O)CCCC2=O)c1cccc(Cl)c1` gave D2 potentiator -13, TRPML1 inh -12, CtBP-E1A inh -5, Six1-Eya2 blk -1 and TRPML1 ag 0.0.
For CCCCOn1c(C)c(C(=O)OCC)c2c3nonc3ccc21 the results were D2 potentiator -4, TRPML1 inh 48, CtBP-E1A inh -16, Six1-Eya2 blk 10 and TRPML1 ag 3.6.
Screening C=CCNC(=O)CC(=O)N/N=C/c1ccccc1F returned D2 potentiator -20, TRPML1 inh 8, TRPV1 potentiator 12, CtBP-E1A inh 8, Six1-Eya2 blk -1 and TRPML1 ag -0.1.
`Cc1ccc(C(=O)Nc2ccc3[nH]c(=O)[nH]c3c2)c(C)c1` gave D2 potentiator -2, TRPML1 inh -10, TRPV1 potentiator 10, CtBP-E1A inh 1, Six1-Eya2 blk -7 and TRPML1 ag -0.4.
Cc1ccc(CNC(=O)C(NS(=O)(=O)c2cccc3nsnc23)C(C)C)cc1 (configuration not stated) was read as D2 potentiator -8, TRPML1 inh 2, TRPV1 potentiator 6, CtBP-E1A inh 1, Six1-Eya2 blk 2 and TRPML1 ag 0.9.
Cn1c(NC(=O)c2cccc(Cn3cc(Cl)cn3)c2)nc2ccccc21 was read as D2 potentiator -3, TRPML1 inh -7, TRPV1 potentiator 10, CtBP-E1A inh 7, Six1-Eya2 blk -1 and TRPML1 ag 0.9.

Three structures already listed, ordered by molecular weight, low to high.
`Cc1ccc(C(=O)Nc2ccc3[nH]c(=O)[nH]c3c2)c(C)c1` gave D2 potentiator -2, TRPML1 inh -10, TRPV1 potentiator 10, CtBP-E1A inh 1, Six1-Eya2 blk -7 and TRPML1 ag -0.4.
`O=C(Nc1cc2c(oc1=O)CCCC2=O)c1cccc(Cl)c1` gave D2 potentiator -13, TRPML1 inh -12, CtBP-E1A inh -5, Six1-Eya2 blk -1 and TRPML1 ag 0.0.
Cc1ccc(CNC(=O)C(NS(=O)(=O)c2cccc3nsnc23)C(C)C)cc1 (configuration not stated) was read as D2 potentiator -8, TRPML1 inh 2, TRPV1 potentiator 6, CtBP-E1A inh 1, Six1-Eya2 blk 2 and TRPML1 ag 0.9.

More compounds follow:
O=S(=O)(c1c(F)cccc1F)N1CCN(C(=S)NCc2ccc3c(c2)OCO3)CC1 was read as D2 potentiator -4, TRPML1 inh -3, TRPV1 potentiator -2, CtBP-E1A inh -1, Six1-Eya2 blk -12 and TRPML1 ag 0.0.
Screening Cc1ccccc1-n1ncc2c1CC(C)(C)CC2NC(=O)CCn1cncn1 (configuration not stated) returned D2 potentiator -13, TRPML1 inh 35, TRPV1 potentiator 17, CtBP-E1A inh 9, Six1-Eya2 blk 17 and TRPML1 ag -0.9.
Screening COc1ccc(C(C)=NOC(=O)c2c(-c3ccccc3Cl)noc2C)cc1CN1CCOCC1 returned D2 potentiator -2, TRPML1 inh 24, CtBP-E1A inh -2, Six1-Eya2 blk -16 and TRPML1 ag -0.4.
Screening COc1cc(C(=O)NCC(=O)OCc2ccc(F)cc2)cc(OC)c1OC returned D2 potentiator 10, TRPML1 inh 30, CtBP-E1A inh -7, Six1-Eya2 blk -1 and TRPML1 ag 2.4.
`c1ccc2c3c(c(CN4CCCCC4)cc2c1)COC3` gave D2 potentiator -11, TRPML1 inh 9, TRPV1 potentiator -9, CtBP-E1A inh 4, Six1-Eya2 blk -5 and TRPML1 ag -0.5.
c1ccc(CCNc2nc(-c3cccnc3)cs2)cc1 was read as D2 potentiator -3, TRPML1 inh 5, TRPV1 potentiator -7, CtBP-E1A inh -17, Six1-Eya2 blk -22 and TRPML1 ag 2.6.
`CCO[C@@H]1OC(C(=O)N2CCOCC2)=C[C@H](c2coc3ccccc3c2=O)[C@H]1CCCO` gave D2 potentiator -8, TRPML1 inh 6, TRPV1 potentiator 17, CtBP-E1A inh -24, Six1-Eya2 blk -3 and TRPML1 ag 0.0.
